PV pol inh = poliovirus RNA polymerase inhibition | P03300 | poliovirus polymerase elongation, fluorescence polarization; active compounds read low | % elongation, % (compound at 16.7 µg/mL) | 0.66% of 150,000 active | AID 588519; in the data active = % elongation below about 90%; note: some results filed as inactive read as strong as hits
Target sequence (P03300 1749-2209 limits assumed): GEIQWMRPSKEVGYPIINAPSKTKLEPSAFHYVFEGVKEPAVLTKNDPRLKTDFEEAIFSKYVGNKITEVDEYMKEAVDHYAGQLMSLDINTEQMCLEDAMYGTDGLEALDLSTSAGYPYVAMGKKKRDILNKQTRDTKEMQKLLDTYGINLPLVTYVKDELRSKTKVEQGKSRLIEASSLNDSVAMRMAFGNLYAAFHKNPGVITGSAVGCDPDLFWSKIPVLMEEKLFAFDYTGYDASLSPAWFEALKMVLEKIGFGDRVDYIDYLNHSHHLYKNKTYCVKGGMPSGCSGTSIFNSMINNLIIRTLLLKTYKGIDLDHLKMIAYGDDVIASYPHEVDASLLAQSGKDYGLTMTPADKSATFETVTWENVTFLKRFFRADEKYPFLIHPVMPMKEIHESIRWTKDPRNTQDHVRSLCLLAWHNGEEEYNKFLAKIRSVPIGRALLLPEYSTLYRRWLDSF
PV pol inh intensity = further read-out of PV pol inh, marked with its call; % elongation; measured here: total intensity read-out; formula for this scale not given here;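 total fluorescence in place of polarization; lower means less elongation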
An asterisk follows results filed as active. These rows are one share of the data (hit frequency here may not be typical).

SMILES	PV pol inh	PV pol inh intensity
COc1ccc(OC)c2sc(N(CCCN(C)C)C(=O)c3ccco3)nc12	97	83
Cc1ccc(Cl)cc1NC(=O)Cn1nnc2sc3c(c2c1=O)CCC(C(C)(C)C)C3 (centres undefined)	108	113
O=C(Cn1nc(Cc2ccncc2)c2ccccc2c1=O)Nc1cccc(C(F)(F)F)c1	108	112
CCN(CC)CCNC(=O)c1ccc(Cn2c(SCc3ccccc3)nc3cccnc32)cc1	106	108
COc1cccc(-c2nc(S(=O)(=O)c3ccc(C)cc3)c(N3CCCCCC3)o2)c1	103	109
COc1ccc(CCNC(=O)CCc2c(C)nc3cc(-c4ccccc4OC)nn3c2C)c(OC)c1	108	109
COc1ccc(OC)c(NC(=O)Cn2c(=O)oc3cc(S(=O)(=O)NCc4ccccc4)ccc32)c1	109	112
CCc1ccccc1NC(=O)c1ccc2c(c1)CCCN2S(C)(=O)=O	100	93
COc1ccc(CNC(=O)Cn2nc(C)c3c(C)n(-c4ccccc4)nc3c2=O)cc1OC	106	103
CCOc1ccc(S(=O)(=O)n2nc(C)c(S(=O)(=O)N3CCCCCC3)c2C)cc1	105	101
Cc1ccccc1N(C)S(=O)(=O)c1nnc(NC(=O)c2ccco2)s1	112	97
COCCN1Cc2cccc(C(=O)Nc3ccc(C(=O)OC)cc3)c2C1=O	108	106

Part of the list above in order of number of heavy atoms, low to high.
SMILES	PV pol inh	PV pol inh intensity
Cc1ccccc1N(C)S(=O)(=O)c1nnc(NC(=O)c2ccco2)s1	112	97
COc1ccc(OC)c2sc(N(CCCN(C)C)C(=O)c3ccco3)nc12	97	83
COc1cccc(-c2nc(S(=O)(=O)c3ccc(C)cc3)c(N3CCCCCC3)o2)c1	103	109
CCN(CC)CCNC(=O)c1ccc(Cn2c(SCc3ccccc3)nc3cccnc32)cc1	106	108

The list goes on.
SMILES	PV pol inh	PV pol inh intensity
CCn1c(=O)c2sccc2n2c(CCCC(=O)N3CCN(c4cc(C)ccc4C)CC3)nnc12	119	112
Cc1ccc(Nc2ncnc3c2nc2n3CCCC2)cc1F	103	108
COc1ccc(NC(=O)CCc2nnc3n(Cc4ccc(C)cc4)c(=O)c4ccccc4n23)cc1	102	103
CNS(=O)(=O)c1cn(CC(=O)N2CCN(c3cc(C)ccc3C)CC2)cc1S(=O)(=O)NC	110	114
CCOc1ccc(CCNC(=O)c2cc3c(-c4ccccc4F)nn(C)c3s2)cc1	108	111
COc1cc(C(=O)Nc2nc3nc(-c4ccccc4)cc(=O)n3[nH]2)cc(OC)c1OC	105	108
Cc1ccc(C(=O)OCc2cc(=O)n3nc(-c4cccs4)sc3n2)cc1	108	117
CCOc1ccc(N2CC(NC(=O)C3CC3)CC2=O)cc1 (centres undefined)	106	106
CCc1nc(SCc2cc(=O)c3cc(F)ccc3[nH]2)n[nH]1	106	101
Cc1ccc(C)c(N(C)C(=O)c2cc3c(s2)-c2ccccc2OC3)c1	106	108
Cc1cc2c(n1-c1ccc(C(=O)NCc3cccc(Br)c3)cc1)CCC(C)C2 (centres undefined)	101	105
COc1ccc(-c2nc(CNC(=O)NC3CCCCC3)c(C)o2)cc1	101	96

A few values from above:
PV pol inh intensity result of CCc1nc(SCc2cc(=O)c3cc(F)ccc3[nH]2)n[nH]1 → 101
PV pol inh intensity result of COc1ccc(NC(=O)CCc2nnc3n(Cc4ccc(C)cc4)c(=O)c4ccccc4n23)cc1 → 103
PV pol inh intensity result of Cc1ccc(Nc2ncnc3c2nc2n3CCCC2)cc1F → 108
PV pol inh result of Cc1cc2c(n1-c1ccc(C(=O)NCc3cccc(Br)c3)cc1)CCC(C)C2 (centres undefined) → 101
PV pol inh intensity result of COc1ccc(-c2nc(CNC(=O)NC3CCCCC3)c(C)o2)cc1 → 96
PV pol inh result of CCn1c(=O)c2sccc2n2c(CCCC(=O)N3CCN(c4cc(C)ccc4C)CC3)nnc12 → 119

Quoted at random: five entries already listed, in no set order.
SMILES	PV pol inh	PV pol inh intensity
CCOc1ccc(CCNC(=O)c2cc3c(-c4ccccc4F)nn(C)c3s2)cc1	108	111
CCOc1ccc(N2CC(NC(=O)C3CC3)CC2=O)cc1 (centres undefined)	106	106
CCOc1ccc(S(=O)(=O)n2nc(C)c(S(=O)(=O)N3CCCCCC3)c2C)cc1	105	101
CNS(=O)(=O)c1cn(CC(=O)N2CCN(c3cc(C)ccc3C)CC2)cc1S(=O)(=O)NC	110	114
Cc1ccc(Cl)cc1NC(=O)Cn1nnc2sc3c(c2c1=O)CCC(C(C)(C)C)C3 (centres undefined)	108	113

Carrying on:
SMILES	PV pol inh	PV pol inh intensity
O=C(NCCCN1CCN(c2ccccc2F)CC1)c1ccc2nc(Cc3ccccc3)oc2c1	111	114
Cc1cccc(C(=O)Nc2nnc(S(=O)(=O)N3CCCc4ccccc43)s2)c1	106	107
CCc1cccc(NC(=O)CN2C(=O)COc3ccc(S(=O)(=O)N4CCC(C)CC4)cc32)c1	104	105
CCOc1ccc(NC(=O)c2c(NCc3ccc(C)o3)sc3c2CCCCC3)cc1	110	123
Cc1cccc(NC(=O)C(=O)NCC(c2ccc3c(c2)OCO3)N2CCN(c3ccccc3)CC2)c1 (centres undefined)	110	105
O=C(NCCc1ccccc1)c1ccc2c(c1)CCN2S(=O)(=O)c1ccc(Br)cc1	108	110
COc1ccc(CNC(=O)c2cc3c(=O)n(Cc4ccco4)ccc3nc2C)cc1	106	106
CCN(c1ccccc1)S(=O)(=O)c1ccc(NC(=O)c2cc(=O)c3cc(C)c(C)cc3o2)cc1	109	112
Cc1cccc(-c2nc(CCNC(=O)c3ccc(Br)o3)cs2)c1	108	114
COc1ccc(CNC(=O)CC2N=C3c4ccccc4N=C(SCC(=O)Nc4ccc(N(C)C)cc4)N3C2=O)cc1 (centres undefined)	107	95
COc1ccccc1C(=O)Nc1cccc(OCc2cc(=O)n3ccccc3n2)c1	109	108
Cc1c(CNC2CCCCCC2)c(C(=O)O)c(C)n1Cc1cccc(Cl)c1	104	104
Cc1cccc(-c2c3c(=O)n(C)c(=O)n(C)c3c3cnc4ccccc4n23)c1	107	109
COc1ccccc1CCNC(=O)C(=O)NCC(c1cccs1)S(=O)(=O)c1ccc(F)cc1 (centres undefined)	108	106
CCN(C(=O)CSc1ncc2c(n1)-c1cc(Cl)ccc1N(Cc1ccccc1)S2(=O)=O)c1cccc(C)c1	112	119
CC1=Nc2cc(C(=O)N3CCCCC3)ccc2Sc2ccc(C)cc21	107	101
Cc1cccc(NC(=O)CSc2nc(-c3ccco3)nc3cc(=O)[nH]n23)c1	103	105
COc1cccc(CSc2nc(-c3ccccc3OC)nc3c2Cc2c(CO)cnc(C)c2O3)c1	109	107
CN(C(=O)CSc1nc2ncccc2o1)c1ccc(F)cc1	107	93
CCn1c(=O)n(-c2ccc(F)c(Cl)c2)c(=O)c2c3c(sc21)CN(C(C)=O)CC3	104	106
Cc1ccc(C(=O)c2cn(Cc3cccc(C)c3)c3nc(C)ccc3c2=O)cc1	111	118
COc1ccc(N2CCN(C(=O)Cn3c(-c4cccs4)cc4ccccc43)CC2)cc1	116	111
CCOC(=O)c1c(C)oc2c(Cl)cc(NS(=O)(=O)c3ccc(Cl)c(C)c3)cc12	111	101
O=C(NCc1ccco1)c1ccc2c(c1)N(Cc1ccc(F)cc1)C(=O)c1ccccc1S2=O (centres undefined)	103	105
O=C(NCCc1ccc(Cl)cc1)c1ccc2c(c1)nc1n2CCOC1	114	112
Cc1cc(C)c(S(=O)(=O)N2CCN(Cc3ccc4c(c3)OCO4)CC2)cc1C	107	108
CCc1nn(-c2ccccc2)c2nc(-c3ccccc3OC)c3cc(OC)c(OC)cc3c12	102	108
O=C(NCc1ccccc1)C(=O)NCC(c1ccco1)S(=O)(=O)c1cccs1 (centres undefined)	106	109
COc1ccccc1NC(=O)Cn1c(SCC(=O)Nc2ccc(F)cc2)nc2ccccc21	106	108
O=C(CSc1nc2c([nH]c3ccccc32)c(=O)n1-c1ccc(F)cc1)N1CCCCCC1	103	106
COc1ccc(S(=O)(=O)N(Cc2nc(-c3cccc(C)c3)no2)C2CCCCC2)cc1	111	116
Cc1oc2ncn(CC(C)C)c(=O)c2c1C(=O)NCCCN1CCCCC1C (centres undefined)	106	112
CCN(CC)S(=O)(=O)c1ccc2nc(NC(=O)c3ccccc3OC)sc2c1	111	102
COc1ccc(-c2cc(-c3ccccc3)nc3c2COc2ccccc2-3)cc1	107	109
CCOc1ccccc1NC(=O)COC(=O)CC(C)(C)CC1=NS(=O)(=O)c2ccccc2N1	108	113
Cc1ccc(CNC(=O)C2CCCN(c3ncnc4onc(-c5ccc(F)cc5)c34)C2)cc1 (centres undefined)	113	111
CCn1c(=O)c2cc(C(=O)NC3CCCCCC3)sc2c2ccccc21	102	107
CC1(C)CC(=O)c2cc(C(=O)Nc3ccccc3Cl)c(=O)n(-c3ccc(Cl)cc3)c2C1	104	112
CCOC(=O)c1c(C)[nH]c(CCC(=O)NCc2cc(Br)ccc2OC)c1C	103	100
COc1ccc(NC(=O)Cn2nc(C(F)(F)F)c3c2CCCC3)cc1OC	107	111
CCn1c(=O)cc(OCC(=O)NCc2ccccc2Cl)c2ccccc21	102	106
CCOC(=O)N1CCc2c(sc(NCc3cc(OC)c(OC)cc3OC)c2C(=O)Nc2ccc(OCC)cc2)C1	100	107
CCOc1ccccc1CNC(=O)c1ccc2c(c1)sc1nc(-c3ccccc3)cn12	110	112
Cc1ccc(NC(=O)c2ccc(-n3c(C)nnc3C)cc2)cc1F	105	99
CCCCN(CC)CCNC(=O)C1CCCN(c2ncnc3onc(C)c23)C1 (centres undefined)	111	115
COc1ccccc1N1CCN(C(CNC(=O)C(=O)NCCc2ccccc2)c2cccnc2)CC1 (centres undefined)	107	111
Cc1ccc(CNCc2ccccc2Cl)s1	104	110
Cc1ccc(-c2c(C)n3c4c(=O)n(C)c(=O)n(C)c4nc3n2-c2cccc(O)c2)cc1	103	106
Cc1cc2c(cc1S(=O)(=O)C(C)CC(=O)NC1CCC(C)CC1)OCC(=O)N2 (centres undefined)	113	115
CCSc1nc2sc3c(c2c(=O)n1-c1ccc(C)cc1)CCCC3	104	108
CCOc1ccc(Cn2c(CNS(=O)(=O)c3cccc(Cl)c3)nc3cccnc32)cc1	105	110
O=C(Nc1c(C(=O)O)oc2ccccc12)c1ccc(C(F)(F)F)cc1	108	109
COCCn1c(CNC(=O)c2cc(OC)c(OC)c(OC)c2)nc2cccnc21	110	113
CC(C)NC(=O)c1cc2c(Cl)nc3ccccc3c2s1	102	104
Cc1n[nH]c(C)c1S(=O)(=O)N(CC(=O)NCc1ccccc1Cl)c1ccc(C(C)C)cc1	103	104
COCCCNC(=O)Cn1c(=O)n(-c2cccc(C)c2)c(=O)c2c1c1cc(C)ccc1n2C	101	104
COc1ccc(CNC(=O)c2cc3c(=O)n(Cc4cccs4)ccc3nc2C)cc1	102	111
COc1cc2c(=O)c(S(=O)(=O)c3ccccc3)cn(CC(=O)Nc3ccccc3C)c2cc1OC	107	112
CCc1ccc(CNC(=O)C2CCCN(c3nnc(C)c4c(C)n(-c5ccccc5)nc34)C2)cc1 (centres undefined)	104	100
CC1CCc2c(sc3nnn(Cc4ccccc4)c(=O)c23)C1 (centres undefined)	107	113
The results go on.
SMILES	PV pol inh	PV pol inh intensity
COc1ccc(Cn2c(SCc3ccc(C(=O)NCc4ccc(C)cc4)cc3)nc3cccnc32)cc1	111	108
COc1ccccc1CNC(=O)Cn1ncc2c(C)n(Cc3ccccc3Cl)c(C)c2c1=O	112	112
CCOc1ccc(NC(=O)Cn2c(=O)n(Cc3ccc(C(=O)NCc4ccc5c(c4)OCO5)cc3)c(=O)c3ccccc32)cc1	107	111
CCc1ccc(N(CC)C(=O)Cn2c(=O)oc3ccccc32)cc1	106	111
Cc1cc(C)cc(NC(=O)Cc2noc3ccccc23)c1	105	112
Cc1cccc(NC(=O)CN2C(=O)c3cccc4cccc2c34)c1C	102	104
COC(=O)c1ccccc1NC(=O)CN1C(=O)COc2ccccc21	107	108
COc1ccc(NC(=O)CN2CCN(Cc3ccccc3Cl)S2(=O)=O)cc1Cl	102	105
Cc1cccc(-n2c3nc(=O)n(C)c(=O)c-3cc3c(Cl)cccc32)c1C	107	111
COc1cc(NC(=O)CSc2nc3ncccc3o2)cc(OC)c1	107	113
COc1cccc(C(=O)c2sc(Nc3ccc(C)cc3C)c(S(=O)(=O)c3ccccc3)c2N)c1	111	113
CC(C)(C)C(=O)N1CCN(c2nc3c(F)cccc3s2)CC1	108	110
COc1ccc(CCNC(=O)c2ccc3c(c2)CCN3S(=O)(=O)c2ccccc2)cc1	110	110
Cc1ccc(OCCCn2c(C3CC(=O)N(c4cccc(Cl)c4)C3)nc3ccccc32)c(C)c1 (centres undefined)	109	111
Cc1ccc(Cl)cc1NC(=O)CCC(=O)N1CC(C)Sc2ccccc21 (centres undefined)	106	106
Cc1ccccc1CNC(=O)CN1C(=O)CSc2ccc(S(=O)(=O)N(C)C)cc21	105	107
COc1ccc(-c2cc3ccc(O)c(CN4CCCC(C)C4)c3oc2=O)cc1 (centres undefined)	107	115
COc1ccc(C(=O)c2cn(Cc3ccccc3)c3ccccc3c2=O)cc1OC	103	103
CCc1cccc(NC(=O)c2c(C)oc3nc(C)nc(N4CCCC4)c23)c1	108	113
CCc1cccc(NS(=O)(=O)c2ccc3c(c2)CC(C)N3C(=O)C2CC2)c1 (centres undefined)	110	115
CCc1ccc(CNC(=O)c2ccc3c(c2)N=C(C)c2cc(C)ccc2S3)cc1	117	111
CCCCc1ccc(C(=O)Nc2ccc3nc(N(CC)CC)cc(C)c3c2)cc1	103	113

Source: PubChem BioAssay
